Screening data from PubChem BioAssay.
Tgondii IFNg = blocks Toxoplasma gondii growth in the presence of IFN-gamma; Toxoplasma gondii growth in IFN-gamma-treated host cells; active compounds read low; reference of the scale not given here; activity change, negative = inhibition, %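 (about 20 µM by stock and volumes)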; actives 3.8% (n = 69,000);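 active = below -70%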;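 also: host cells are HeLa cells infected with Toxoplasma gondii; parasite growth read as luciferase light; one replicate is shown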
Active calls of the source: *; i = inactive; & = joins results of further samples. A portion of the library; rates above refer to the full screens.

Start of the data: the first three entries, ahead of the listing:
SMILES | Tgondii IFNg
CC1=CC[C@@H]2CN(C(=O)Cc3cc(C)no3)C[C@@H]2C1 | 12
CN1C(=O)CC(C(=O)N2CC(c3cccnc3)C2)c2ccccc21 (stereo not given) | 9
COc1cccc(-c2cn[nH]c2C2CCN(C(=O)CN3CCOCC3)CC2)c1 | -47

This part in full (from the top)
SMILES | Tgondii IFNg
CC1=CC[C@@H]2CN(C(=O)Cc3cc(C)no3)C[C@@H]2C1 | 12
CN1C(=O)CC(C(=O)N2CC(c3cccnc3)C2)c2ccccc21 (stereo not given) | 9
COc1cccc(-c2cn[nH]c2C2CCN(C(=O)CN3CCOCC3)CC2)c1 | -47
CC1CC(C)CN(CC(=O)Nc2ccc(C3NC(=O)c4cccnc4N3C)cc2)C1 (stereo not given) | -46
CC(C)[C@@H]1C/C=C\CCNC(=O)[C@@H](C)CC(=O)N1 | 7
COc1ccc(S(=O)(=O)N(C)Cc2nonc2C)cc1NC(C)=O | 7
COCCO[C@H]1CCN(C(=O)c2ccoc2C)[C@H]1Cc1ccccc1 | 16
CC[N+](CC)(CC)CC(=O)Nc1c(C)cccc1C | 18
COc1ccccc1NC(=O)c1c(O)c2cccnc2n(-c2cccc(F)c2)c1=O | 201
Cc1cccc(N2CCN(C(=O)c3ccc(-c4csc(C5CC5)n4)cc3)CC2C)c1 (stereo not given) | -2
Cc1cc(-c2cc(NC3CCNCC3)nc3[nH]ccc23)c(=O)[nH]c1C | -85*
Cc1cccc(-c2nc(Cn3nnc(-c4nc(-c5ccccc5Cl)no4)c3C)c(C)o2)c1 | 1
CN(C)CCOCc1nnn2c1CN(C(=O)C1CCOCC1)CCC2 | 6
CSCc1ccc(C(=O)NC(c2cccnc2)c2cc(C)ccc2C)o1 (stereo not given) | -33
CN(C)CCCn1ccnc1-c1c(F)cccc1F | -45
Cc1cc(-n2cccn2)ccc1-c1nccn1CCc1cnc[nH]1 | -6
CCC(C)NCc1ccccc1-c1ccc(S(C)(=O)=O)cc1 (stereo not given) | 0
O=C(NCc1nc(-c2cccc(F)c2)c(-c2ccccn2)[nH]1)C1COCCO1 (stereo not given) | 0
CN(CCN1CCCCCC1)C(=O)c1c(O)cccc1O | 4
Oc1cc2c(cc1-n1cnnc1)CCCC2 | -36
COc1ccc(-c2cc3nnc(-c4ccccc4)nc3s2)cc1 | 280
COc1cccc(C(=O)Nc2ccc(-c3nc(-c4ccc(C)cc4)co3)cc2)c1 | 9
COc1ccc(-c2nc(NCc3ccc(F)cc3)c3ccccc3n2)cc1 | -56
Cc1[nH]c2c(CN3CCC(N)(C(=O)O)C3)cccc2c1C (stereo not given) | 3
CC1=Nc2ccc(-c3ccccc3)cc2C1(C)C | -99*
CCOC(=O)C1(Cc2cc(-c3ccccc3C)no2)CCN(Cc2ccccn2)CC1 | -77*
CC(C)c1ccc(NC(=O)CN2CCC3(CC2)N=C(c2ccccc2)C(=O)N3)cc1 | -19
COc1ccc(C[C@@H]2CCn3nncc3COCCCNC2=O)cc1 | -48
Cc1ccc(C)c(-c2coc(-c3ccc(NC(=O)Nc4ccccc4F)cc3)n2)c1 | -35
Cc1ccc2cccc(NC(=O)c3ccccc3OCCN3CCCC3=O)c2n1 | -3
CN1CCC(=C2c3ccccc3C=Cc3ccccc32)CC1 | -59&7&-60&-63
CC(C)CCN1CCc2nnc(CO)n2CC1 | 95
COc1ccc(-c2cc(NCc3cccnc3)nc3[nH]ccc23)cn1 | -35
Cc1nn(Cc2nn[nH]n2)c(C)c1Br | 55
COc1ccccc1-c1cccc(C(=O)N[C@H]2COC[C@@H]2OC)c1 | -1
O=S1(=O)c2ccccc2O[C@H]2CCN(Cc3cccc(Cl)c3)CC[C@H]2N1CC1CC1 | -15
Cc1ccc2cccc(NS(=O)(=O)c3cn(C)nc3C)c2n1 | 65
O=C(NCC1(N2CCCCC2)CCCCC1)c1ccccc1Cn1cccn1 | -31
Cc1ccc(S(=O)(=O)c2ncsc2SCc2ccc(Cl)cc2Cl)cc1 | -94*
Oc1[nH]c2ccccc2c1N=Nc1ccccc1 | 195
O=C(O)CCC(=O)N1CC[C@H]2[C@H]1CC(=O)N2c1ccsc1 | 5
Cc1c(F)cccc1NC(=O)CNC(C)(C)Cc1ccc(F)cc1 | 14
OCCn1ncc2c1CN(c1noc(-c3ccccc3)n1)C2 | 1
COc1ccccc1NC(=O)N1C[C@@H]2[C@H](c3ccccc31)[C@H](CO)N2C(=O)C1CCCC1 | 9
COCCN1CCN(c2c3c(nc4cc(-c5nccn5C)nn24)CCCC3)CC1 | 1
Cc1cc(CNCC2Cn3nnc(C)c3CO2)oc1C (stereo not given) | 39
COc1ccc(NC(=O)Cn2ncc3c(N4CCN(c5ccccc5)CC4)ncnc32)c(OC)c1 | -53
Cc1ccc(-c2nccn2Cc2nncn2C2CCCCC2)o1 | -39
CCCC(=O)Nc1ccc2c(c1)C(=O)N(C)C[C@@H](OC)[C@H](C)CN(Cc1ccc(F)cc1)[C@H](C)CO2 | 5
CN1CCC2(CC1)CN(C(=O)COCC1CCCCO1)CCN2C (stereo not given) | -9
Cc1ccc(/C=C2\SC(=O)NC2=S)o1 | -12
Cc1ccc2ncnc(NCCCCCC(=O)O)c2c1 | 11
CCN1CCNC(=O)C12CCN(S(=O)(=O)c1ccccc1)CC2 | 88
COc1ccc(C=O)c(OC)c1 | 10
O=C(Nc1ccccc1F)c1cncc(NS(=O)(=O)c2ccccc2)c1 | -10
CCCN(CC)C(=O)c1ccc2onc(-c3coc(CC)n3)c2c1 | -70
Cc1noc(C)c1CN1Cc2nccn2CC(CN2CCCC2)C1 (stereo not given) | 88
CNC(=O)C(C)N(C)Cc1nnc(CC2CCNCC2)n1-c1ccccc1 (stereo not given) | -53
CSc1ccc(CNC(=O)c2ccc(Cl)cc2)s1 | -33
CCC(C)C(NC(=O)C(CC(C)C)NC(=O)OCc1ccccc1)C(=O)OC (stereo not given) | 23
Continuation:
SMILES | Tgondii IFNg
CC(=O)Nc1ccc(Cl)c(C(=O)NCCc2c[nH]c3ccccc23)c1 | -32
O=C(c1ccc(F)cc1)N1CC(=O)N2[C@H](CO)[C@H](c3ccc(C#CCC4CCCC4)cc3)[C@H]2C1 | -51
COc1ccc(-c2csc(NC3=NS(=O)(=O)c4ccccc43)n2)cc1OC | i
CN(Cc1cccc(C(=O)Nc2ccc3c(c2)CCC3=O)c1)Cc1ccno1 | 4
CN1CC(=O)N2CCN(C/C=C/c3ccc(F)cc3)CC2C1=O (stereo not given) | 2
COc1ccccc1CCC(=O)N1CCC(O)(CN(C)C)C1 (stereo not given) | -15
CN(CCN1CCCCC1)C(=O)C1Cc2cc(Cl)ccc2O1 (stereo not given) | -21
CCNC(=O)c1cc2c(c(-c3cccc(-c4cncnc4)c3)n1)[C@@H](CCO)N(C(C)=O)C2 | -37
CC1(C)CC(=O)c2ccc(OCC(=O)Nc3ccccc3)cc2O1 | 175
C=C(C)COc1cccc(C(=O)N2CCN3CCCC3C2)c1 (stereo not given) | 4
CC1N(C)C(=O)COC12CCN(C(=O)Cc1ccsc1)CC2 (stereo not given) | 5
CC(C(=O)NCc1cccnc1Oc1ccccc1F)n1cccc1 (stereo not given) | 2
COCC1(Cn2cnc(-c3ccccc3)c2-c2nccn2C)CC1 | -3
O=C(c1ccc(-c2ccccc2)[nH]1)N1CCCC(CO)(CCc2ccccc2)C1 (stereo not given) | -22
C[C@@H]1CCCCO[C@H](CN(C)S(=O)(=O)c2ccc(F)cc2)[C@@H](C)CN([C@H](C)CO)C(=O)c2cc(N(C)C)ccc2O1 | 186

Five entries picked at random from the list so far, as already listed:
SMILES | Tgondii IFNg
COc1ccc(-c2nc(NCc3ccc(F)cc3)c3ccccc3n2)cc1 | -56
CC(C)CCN1CCc2nnc(CO)n2CC1 | 95
COCC1(Cn2cnc(-c3ccccc3)c2-c2nccn2C)CC1 | -3
CC1N(C)C(=O)COC12CCN(C(=O)Cc1ccsc1)CC2 (stereo not given) | 5
CC1(C)CC(=O)c2ccc(OCC(=O)Nc3ccccc3)cc2O1 | 175

Continued:
SMILES | Tgondii IFNg
Cc1nc(-c2ccc(F)cc2)sc1CCNC(=O)COc1ccccc1F | -15
CCOC(=O)c1cc(CSc2n[nH]c(=O)n2-c2ccccc2)nn1C(C)(C)C | -15
O=C(Nc1ccc(NC(=O)c2ccco2)nc1)c1ccco1 | 387
O=C1Cc2cc(-c3ccc4c(c3)OCO4)ccc2N1 | -75*
CN(C)CC(=O)N1CCc2ncnc(N3CCOCC3)c2CC1 | -43
Cc1ccc(-c2csc(-c3ccc(-c4csnn4)cc3)n2)cc1 | 171
O=S(=O)(c1ccccc1)N1CCCC(c2nnc(-c3nccc4ccccc34)o2)C1 (stereo not given) | -13
Cc1ccc(S(=O)(=O)N(C)C[C@@H]2Oc3cc(C#CC4CCCC4)ccc3S(=O)(=O)N([C@@H](C)CO)C[C@@H]2C)cc1 | -114*
CN(C)C(=O)N1CCn2cc(CNC(=O)c3cnn(C)c3)nc2C1 | -49
CCSc1nc(CC(=O)NCc2ccc3c(c2)CC(C)O3)cs1 (stereo not given) | -17
COc1ccc(CNC(=O)C[C@H]2C=C[C@@H](NC(=O)c3cccc(F)c3)[C@@H](CO)O2)cc1 | -25
COc1ccc2oc(=O)c(C(=O)Nc3c(C)n(C)n(-c4ccccc4)c3=O)cc2c1 | 29
Cc1cnc(C(=O)N2CC3(CCNCC3)CC2C(=O)O)cn1 (stereo not given) | -1
COc1ccccc1CN(Cc1cccnc1)S(=O)(=O)Cc1ccccc1Cl | -1
Cc1ccc(C(=O)CSc2nc(C(C)C)nc3ccccc23)cc1 | 1
Cc1nc(-c2cccc(F)c2)sc1CCNC(=O)COc1ccccc1F | 5
CCOC(=O)C1CCCN(c2nc(-c3ccc(Cl)cc3)nc3ccccc23)C1 (stereo not given) | -56
O=S1(=O)CCC(S(=O)(=O)N2CCCCC2)C1 (stereo not given) | 36
CCc1cnc(N2[C@H](C#N)[C@H](c3ccccc3-c3ccccc3C)[C@H]2CO)s1 | 19
COc1cccc(C(=O)Nc2ccc3c(c2)OC[C@H](C)N(CCc2ccccc2)C[C@H](C)[C@@H](OC)CN(C)C3=O)c1 | -2
CC(C)(C)NC(=O)N1CCOC(Cc2ccc(F)cc2)C1 (stereo not given) | -2
COc1ccc2c(c1)NC1(CCN(C(=O)Nc3cccc(Cl)c3C)CC1)c1cccn1-2 | 20
CCCOC(=O)N1CC[C@@H](c2ccc3c(c2)OCO3)[C@H](O)C1 | 4
Cn1cccc1C(=O)N1CCC2(CC1)NC(=O)CC2c1ccncc1 (stereo not given) | 6
CO[C@@H]1[C@@H](OC(N)=O)[C@@H](O)[C@H](Oc2ccc3c(O)c(NC(=O)c4ccc(O)c(CC=C(C)C)c4)c(=O)oc3c2C)OC1(C)C | 2&-62
CN(C)S(=O)(=O)c1ccc2c(c1)cc(C(=O)NCCCN1CCCC1=O)n2Cc1ccccc1 | 19
Cc1cc(N2CCCN(Cc3ccc(O)c(C(=O)O)c3)CC2)ccn1 | -62
COCC(=O)N1CCO[C@]2(CCC[C@H]2COc2cccnc2)C1 | 0
O=C(C[C@@H]1CC[C@@H](NC(=O)c2cccnc2)[C@@H](CO)O1)NCc1ccc(Cl)c(Cl)c1 | -32
COc1ccc(C(=O)N2CCC(C)(C(=O)NCc3ccc(F)cc3F)CC2)cc1 | -1

Structures from the list above with a COOH group:
SMILES | Tgondii IFNg
Cc1[nH]c2c(CN3CCC(N)(C(=O)O)C3)cccc2c1C (stereo not given) | 3
O=C(O)CCC(=O)N1CC[C@H]2[C@H]1CC(=O)N2c1ccsc1 | 5
Cc1ccc2ncnc(NCCCCCC(=O)O)c2c1 | 11
Cc1cnc(C(=O)N2CC3(CCNCC3)CC2C(=O)O)cn1 (stereo not given) | -1
Cc1cc(N2CCCN(Cc3ccc(O)c(C(=O)O)c3)CC2)ccn1 | -62

Other compounds
SMILES | Tgondii IFNg
CC(C)c1ccc(C(NC(=O)CCc2ccccc2)c2ccc3cccnc3c2O)cc1 (stereo not given) | -102*
CCN(CC)C(=O)Sc1cccc2cccnc12 | 4
COc1ccc(OC)c(-n2cnnc2CN2CCCCC2)c1 | -4
CSc1ccc(NC(=O)N2CCC(c3nc(C(=O)N4CCCCC4)c(C)o3)CC2)cc1 | -64
CN(C)c1ccc(C(=C2C=CC(=[N+](C)C)C=C2)c2ccc(N(C)C)cc2)cc1 | -81*
OCC1(Cc2ccc(F)cc2F)CCCN(c2ncnc3[nH]ccc23)C1 (stereo not given) | -11
Cc1ncc(CN2CC(CN3CCOCC3)c3ccccc32)cn1 (stereo not given) | 29
COc1ccc2c3c(n(C)c2c1)[C@H](CO)N(C(=O)C1CC1)CC31CN(Cc2ccccc2OC)C1 | -30
CN1CCCn2nc(C(=O)NCCc3csc(-c4cnccn4)n3)cc2C1 | -9
O=C(NCCCn1cccn1)C1=NN(C2CCS(=O)(=O)C2)C(=O)CC1 (stereo not given) | -2
c1cc2cc(CN3CCC4(CCOCC4)CC3)ccc2[nH]1 | -3
CN(Cc1nc(-c2ccc3c(c2)OCO3)no1)CC1COCCO1 (stereo not given) | 0
CN(C)C(=O)c1cccc(-c2ccc([C@H]3[C@H](CO)N4CCCCN(CC5CCOCC5)C[C@@H]34)cc2)c1 | 12
CCc1cccc(C)c1NC(=O)Cn1ncc2c(N3CCN(c4ccccc4)CC3)ncnc21 | 81
CO/N=C(/C(=O)N[C@@H]1C(=O)N2C(C(=O)OCOC(=O)C(C)(C)C)=C(/C=C/c3scnc3C)CS[C@H]12)c1csc(N)n1 | 16
Cc1oc(-c2ccccc2)nc1Cc1noc(-c2cccc(F)c2)n1 | 9
O=C(O)[C@H]1[C@H](CO)[C@H]2Cn3c(ccc(/C=C/c4ccccc4)c3=O)[C@H]2N1Cc1ccc2c(c1)OCO2 | 61
CC(C)(O)c1cn(C2CCN(C(=O)c3ccc(N4CCCCC4)cc3)CC2)nn1 | 27
